Calb FLC: C. albicans growth modulation with fluconazole. 0.57% of 300,000 active. C. albicans CaCi-2 (fluconazole-resistant clinical isolate) + fluconazole, Alamar Blue growth, 48 h. AID 1979. growth inhibition, % (concentration not given with the values);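 active = most replicates above 75%; inconclusive = exactly half above 75%; inactive = most below 75%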;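 note: all wells also contain fluconazole at 8 µg/ml as a sub-toxic cotreatment; 0% = median of DMSO wells and 100% = median of geldanamycin control wells; wells of about 8 µL received 7.5 nL stock; the first replicate is given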
RanGTP-Imp inh: inhibitors of RanGTP-importin-beta interaction, primary screen, biochemical, FRET, CFP-Ran, YFP-importin-beta, homogeneous; cell-free CFP-Ran/YFP-importin-beta FRET ratio; inhibition, % (concentration not given with the values); 1.1% of 300,000 active; AID 2216;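 active = most replicates above 15%; inconclusive = exactly half above 15%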;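 note: 0% = DMSO wells and 100% = Ran loaded with GDP instead of GTP; wells of about 40 µL received 100 nL stock; the first replicate is given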
AF4-AF9 inh: MLL-AF4/AF9 protein interaction inhibition; P42568; AlphaScreen, biotin-AF4 peptide binding to FLAG-AF9; inhibition, % at 10 µM; 0.47% of 350,000 active; AID 651704;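 active = every replicate reaching a set inhibition limit, whatever the replicate mean, cut at about 25% in these data; inconclusive = mean inhibition reaches that limit but some replicates miss it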;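 note: 0% = plate neutral control median and 100% = total signal loss; the record names both 10 and 1 µM as test concentration; the first replicate is given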
Beta apoptosis: blocks beta cell apoptosis. INS-1E cytokine-induced death, ATP luminescence, 48 h; percent of positive-control rescue, neutral wells zero. AID 435005. protection from apoptosis, % (no concentration beside the values). 0.8% of 300,000 active;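 active = all replicates at 75% or more, or half of them and the mean; inconclusive = half reach 75% but not the mean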;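 note: 0% = cytokine-treated negative control wells and 100% = positive control rescue; higher means more ATP so stronger rescue from cytokine killing; wells of about 40 µL received 100 nL stock; the first replicate is given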
Vif TR-FRET: inhibitors of Vif binding to APOBEC3G peptide, primary screen, biochemical, TR-FRET, GST-Vif 1-94, biotin-A3G peptide, dose response retest (AID 1117319). TR-FRET GST-Vif / biotin-A3G peptide binding; higher % means a stronger effect; test concentration not given here; strong numbers were not always called active. 0.57% of 260,000 active. inhibition, %; hits with a dose series show IC50 in µM;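 active = above the screen mean plus three standard deviations and confirmed in dose response; inconclusive = results disagree or hit not tested in dose response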;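 note: Vif residues 1-94 fused to GST binding biotinylated APOBEC3G peptide 110-148; 0% = full assay without inhibitor and 100% = GST in place of GST-Vif; retest series ran down from 100 µM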
T cruzi inh: blocks replication of Trypanosoma cruzi; 1.4% of 300,000 active; inhibition, % (no concentration beside the values); AID 1885; T. cruzi beta-gal in NIH3T3, luminescence, 90 h;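 active = mean inhibition across valid replicates above about 55%, limit read from the data; inconclusive = mean below that limit but half or more replicates reach it; inactive = mean below it, under half of replicates reach it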;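 note: signal also drops with host cell toxicity which is not excluded here; 0% = plate median of DMSO wells and 100% = zero luminescence signal; higher percent means less beta-gal luminescence so fewer parasites; stock transfer was 50 nL into about 50 µL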
LANA-H2B inh: blocks KSHV LANA binding to histone H2A/H2B. cell-free LANA-H2A/H2B peptide, fluorescence polarization. Q9QR71. 0.6% of 320,000 active. inhibition, % (concentration not given with the values). AID 2629; in the data active = inhibition mostly above about 10%, no sharp cut-off; inactive = mostly below about 6.7%;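 note: stock transfer was 7.5 nL into about 10 µL; 0% = median of vehicle wells and 100% = median of positive control wells; one replicate is shown; the record names a cut of 25% in any replicate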
Target sequence (Q9QR71 whole entry, looked up): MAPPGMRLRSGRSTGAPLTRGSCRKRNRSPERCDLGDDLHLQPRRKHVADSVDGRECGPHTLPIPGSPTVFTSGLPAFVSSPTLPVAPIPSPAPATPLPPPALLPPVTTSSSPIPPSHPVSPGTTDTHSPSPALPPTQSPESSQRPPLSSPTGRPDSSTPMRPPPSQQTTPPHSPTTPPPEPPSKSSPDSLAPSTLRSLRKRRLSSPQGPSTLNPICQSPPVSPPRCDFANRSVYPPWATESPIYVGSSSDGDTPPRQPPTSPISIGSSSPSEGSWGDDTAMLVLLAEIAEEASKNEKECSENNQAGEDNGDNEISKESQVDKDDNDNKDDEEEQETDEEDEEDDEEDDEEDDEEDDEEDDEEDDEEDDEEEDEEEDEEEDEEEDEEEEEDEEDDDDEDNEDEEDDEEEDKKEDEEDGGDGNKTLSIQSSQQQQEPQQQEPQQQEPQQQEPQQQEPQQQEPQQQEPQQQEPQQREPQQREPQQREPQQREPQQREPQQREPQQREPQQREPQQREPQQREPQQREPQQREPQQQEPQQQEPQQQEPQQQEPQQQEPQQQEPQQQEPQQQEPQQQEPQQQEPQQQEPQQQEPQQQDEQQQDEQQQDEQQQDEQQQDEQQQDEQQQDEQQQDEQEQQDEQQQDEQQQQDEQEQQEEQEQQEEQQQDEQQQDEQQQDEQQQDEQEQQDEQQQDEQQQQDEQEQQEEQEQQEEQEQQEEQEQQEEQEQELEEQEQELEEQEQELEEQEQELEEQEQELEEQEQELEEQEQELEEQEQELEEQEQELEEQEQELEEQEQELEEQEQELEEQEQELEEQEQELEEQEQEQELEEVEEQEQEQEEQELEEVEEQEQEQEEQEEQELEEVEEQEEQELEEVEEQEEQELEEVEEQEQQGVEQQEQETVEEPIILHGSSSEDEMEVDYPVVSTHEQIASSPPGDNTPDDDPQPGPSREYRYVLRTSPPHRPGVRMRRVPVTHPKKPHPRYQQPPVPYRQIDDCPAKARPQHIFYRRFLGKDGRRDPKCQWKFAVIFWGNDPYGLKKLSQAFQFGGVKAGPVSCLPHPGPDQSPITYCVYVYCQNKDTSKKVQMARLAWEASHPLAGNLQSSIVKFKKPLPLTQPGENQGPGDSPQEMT
Bfl-1 A1 inh: inhibitors of the anti-apoptotic protein A1, read as caspase activation. MEF A1-2A-BIM cells, Caspase-Glo 3/7 luminescence, 3 h; percent of clofoctol response, vehicle zero. caspase activation, % (test concentration not listed). 0.066% of 330,000 active;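 active = over half of replicate activation scores above 10%, or exactly half above 10 with the replicate mean above 10; inconclusive = replicate mean below 10 yet half the replicates above 10; inactive = over half of replicates below 10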;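 note: wells of about 30 µL received 50 nL stock; many hits fall short of the cut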
Starred values were filed as active, the others as inactive; u = inconclusive; x = no result given; & = joins results of further samples.

SMILES | Calb FLC | RanGTP-Imp inh | AF4-AF9 inh | Beta apoptosis | Vif TR-FRET | T cruzi inh | LANA-H2B inh | Bfl-1 A1 inh
Cn1c(=O)cc(SCC(=O)NCCCN2CCN(c3ccccc3F)CC2)c2ccccc21 | -11 | -1.1 | x | 1 | -3% | 10 | -7.0 | -0.4
CCOC(=O)CCCCC(=O)c1[nH]c(=O)[nH]c1CSCCO | -5 | -0.4 | 77* | 12 | -18% | -6 | 7.4 | -0.2
O=C(CNC(=O)c1ccc(Cl)c([N+](=O)[O-])c1)NCC1CCCO1 (stereo not given) | -7 | 1.4 | -5.4 | -5 | x | -3 | 1.2 | 1.0
CCN(CC)C(=O)Cn1nc(C)c2ccccc2c1=O | 0 | -1.0 | x | 6 | 6% | -16 | 1.6 | -0.6
CCc1nnc(NS(=O)(=O)c2ccc(NC(=S)Nc3ccc(F)cc3)cc2)s1 | -4 | -0.2 | 0.1 | x | 0% | -33 | -2.1 | 0.0
Cc1n[nH]c(=S)n1/N=C/c1c(O)ccc2ccccc12 | 5 | 4.1 | -3.1 | -4 | x | -16 | 2.0 | 0.4
CSCC(=O)N1CCCC(CNC(=O)c2ccc(-c3ccccc3)cc2)C1 (stereo not given) | 3 | -1.8 | -2.5 | -8 | 0% | -14 | 1.4 | 0.5
NS(=O)(=O)c1ccc(CCNS(=O)(=O)c2ccc3c(c2)NC(=O)CO3)cc1 | -3 | -1.4 | -0.7 | -2 | x | -3 | -8.1 | 0.3
C/C(=N\NC(=O)C1CC1c1ccccc1)c1cccs1 (stereo not given) | 0 | 2.7 | -14 | -4 | u | -4 | -1.2 | 1.1
O=C(OC1CCOC1=O)c1ccc(S(=O)(=O)N2CCCCCC2)cc1 (stereo not given) | 24 | u | x | -6 | -4% | -38 | 0.5 | 1.0
O=C(CCC1CCCN(C(=O)c2cc3ccccc3o2)C1)NCc1ccc(F)c(F)c1 (stereo not given) | 5 | -0.2 | 1.3 | 0 | 9% | -7 | -3.5 | -4.0
CCN(CC(=O)NCC(=O)Nc1cccc(C)c1C)Cc1ccccc1 | -5 | 1.1 | 0.0 | -1 | x | 2 | 0.9 | -0.4
CCCN(CC(=O)Nc1ccccc1OC)C(=O)c1ccc(COc2ccccc2)o1 | x | x | 2.6 | -1 | -7% | x | 1.4 | 1.0
Cc1cc2oc(C(=O)Nc3nonc3C)c(C)c2cc1Cl | -12 | 1.9 | -8.3 | -2 | -4% | 21 | -0.1 | -0.1
CC(=O)/C(=N\Nc1ccc(Cl)cc1Cl)Sc1cccc2cccnc12 | -5 | -1.2 | 7.8 | 46 | -10% | 68* | 0.1 | -0.3
CC(C)N1CCN(Cc2cccc3nonc23)CC1CCO (stereo not given) | 17 | u | 0.5 | 1 | 14% | -14 | 1.8 | -1.0
COc1cc2c(cc1OC)CN(C(=O)CCNC(=O)c1ccccc1Cl)CC2 | x | x | 3.0 | -4 | x | x | -1.5 | -0.1
O=C(c1ccc2c3c(cccc13)CC2)C1CCCN(Cc2ccccn2)C1 (stereo not given) | -2 | 4.9 | 13 | -5 | 9% | 8 | 3.2 | 0.4
N#Cc1ccc(CN2CCN(C(=O)C3CC(=O)N(c4ccccc4F)C3)CC2)cc1 (stereo not given) | x | x | 0.1 | 0 | x | x | -0.9 | 1.7
COc1ccc(C)cc1NC(=O)C1CCCN1C(=O)OCc1ccccc1 (stereo not given) | -8 | 4.4 | x | 2 | 5% | 3 | x | -0.1

4 structures already listed, sorted by molar mass, rising:
SMILES | Calb FLC | RanGTP-Imp inh | AF4-AF9 inh | Beta apoptosis | Vif TR-FRET | T cruzi inh | LANA-H2B inh | Bfl-1 A1 inh
O=C(c1ccc2c3c(cccc13)CC2)C1CCCN(Cc2ccccn2)C1 (stereo not given) | -2 | 4.9 | 13 | -5 | 9% | 8 | 3.2 | 0.4
COc1ccc(C)cc1NC(=O)C1CCCN1C(=O)OCc1ccccc1 (stereo not given) | -8 | 4.4 | x | 2 | 5% | 3 | x | -0.1
CC(=O)/C(=N\Nc1ccc(Cl)cc1Cl)Sc1cccc2cccnc12 | -5 | -1.2 | 7.8 | 46 | -10% | 68* | 0.1 | -0.3
N#Cc1ccc(CN2CCN(C(=O)C3CC(=O)N(c4ccccc4F)C3)CC2)cc1 (stereo not given) | x | x | 0.1 | 0 | x | x | -0.9 | 1.7

The list continues:
SMILES | Calb FLC | RanGTP-Imp inh | AF4-AF9 inh | Beta apoptosis | Vif TR-FRET | T cruzi inh | LANA-H2B inh | Bfl-1 A1 inh
COc1ccccc1CNC(=O)C1CCCN(S(=O)(=O)c2cccc3nonc23)C1 (stereo not given) | 2 | -1.8 | -4.3 | 0 | -1% | 5 | -5.2 | 0.6
CCCCNC(=O)c1ccccc1NC(=O)CCSc1ccccc1 | 17 | 4.3 | x | -7 | 3% | 25 | -2.7 | 0.3
COc1ccc(C(=O)O/N=C2\CCCc3nonc32)cc1 | 0 | 2.5 | x | -25 | 4% | -4 | 8.6 | 0.9
CC(=O)NCCCNc1ccc([N+](=O)[O-])cc1 | 14 | 3.3 | x | -3 | -8% | -9 | -2.4 | -0.5
Cc1ccc(-c2nc(C(F)(F)F)cc(=O)[nH]2)cc1 | 49 | -0.9 | -0.3 | -6 | -14% | -9 | -0.1 | -0.2
Cc1nc2cc(N)ccc2n1-c1ccccc1 | -3 | u | -14 | -1 | 9% | 22 | 0.7 | 0.4
Cc1cc(=O)[nH]c(N/N=C/c2c(C)nn(-c3ccc(F)cc3)c2Cl)n1 | 20 | -1.5 | 1.6 | 2 | 13% | -5 | 1.6 | -0.8
CN(C)c1ncnc2c1NC1=C(S2)C(=NCCCC(=O)O)CC(C)(C)C1 | -10 | -7.1 | x | 0 | 9% | -16 | 1.7 | 0.6
O=C(NCCCl)C1Cc2c(ccc3ccccc23)O1 (stereo not given) | 25 | 4.9 | -0.1 | 0 | x | -8 | 10 | -0.1
CCOC(=O)N1CCN(C(=O)CN(C2CCCCC2)S(=O)(=O)c2c(C)cc(C)cc2C)CC1 | -1 | -0.8 | x | -5 | 1% | 19 | 0.1 | -0.6
Cc1nc(N2CCOCC2)nc(N2CCCCC2C)c1[N+](=O)[O-] (stereo not given) | -4 | 2.0 | x | x | -4% | 2 | 4.1 | 0.8
Cc1[nH]c(C)c(S(=O)(=O)N2CCN(c3cccc(C(F)(F)F)c3)CC2)c1C(=O)N1CCCC1 | 16 | 0.9 | -0.8 | 4 | x | 1 | -4.1 | 0.2
CCN(CC)CCn1c2c(c(SCC(=O)Nc3ccc4c(c3)OCCO4)nc1=O)CCCC2 | -11 | -3.3 | 0.0 | -1 | -4% | 3 | 1.5 | -0.3
Cc1ccc(CCNC(=O)C2CCC(=O)N(Cc3ccccc3F)C2)o1 (stereo not given) | -12 | -1.7 | -1.6 | -1 | x | 12 | 1.1 | -0.7
Cc1nn(CC(=O)Nc2ccc3c(c2)OCO3)c(C)c1Cl | -5 | -3.2 | -13 | 0 | x | -4 | -1.1 | 0.0
CCOc1cc(/C=C/C(=O)N(CC)CC(=O)NCc2cccs2)cc(Cl)c1OC | 1 | 3.3 | 6.5 | 1 | x | 7 | -2.5 | -0.4
CCOC(=O)c1sc(=NC(=O)COc2ccccc2)n(C)c1C | 3 | -3.3 | 0.5 | 5 | -2% | -2 | -3.8 | 0.7
CCOc1ccc(N2C(=O)CC(NNc3nc4ccccc4s3)C2=O)cc1 (stereo not given) | -9 | 2.9 | x | -24 | -2% | 6 | -3.1 | -0.8
CCOC(=O)C1=C(C)S/C(=C\N(C)C)C1=O | -6 | u | x | -5 | 9% | 2 | -1.8 | -0.6
CCOC(=O)c1ccc(NC(=O)CC2NCCNC2=O)cc1 (stereo not given) | -1 | 0.6 | x | -6 | -3% | -6 | 2.9 | 0.1
O=C(Nc1ccccc1)N1CCC(C(=O)N2CCN(c3ccccc3F)CC2)CC1 | -7 | 2.3 | 1.1 | 2 | x | -6 | -1.8 | -0.1
CC/C(=N\NC(=O)c1ccoc1C)c1ccc(C)o1 | 2 | u | 5.6 | -2 | 0% | 1 | 4.1 | 0.2
Cc1ccc(-n2c(=S)sc3c(=O)n(-c4ccccc4F)c(SCC(=O)O)nc32)cc1C | 4 | -7.4 | -3.3 | 1 | 5% | -6 | 5.4 | -0.1
O=C(CN1C(=O)/C(=C/c2cccc(Cl)c2)SC1=S)NC1C=CS(=O)(=O)C1 (stereo not given) | -5 | 4.0 | 1.1 | 0 | x | 7 | 0.5 | 0.7
CC(C)c1nc(N2CCOCC2)c(C#N)c2c1CCCC2 | 15 | -3.5 | x | x | 0% | 10 | 4.1 | -0.5
CCc1cc(C(c2ccccc2OC)N2CCOCC2)c(NC(=O)c2ccccc2)s1 (stereo not given) | -4 | -1.7 | x | 0 | 9% | -19 | -1.0 | 0.0
CSc1ccccc1C(=O)NCc1ccc(F)cc1 | 23 | 4.8 | -5.8 | -5 | -4% | 10 | -2.0 | 0.9
COc1cc(OC)c(NC(C)C(=O)N2CCCC2)cc1Cl (stereo not given) | 13 | 0.5 | -14 | -6 | 26% | -10 | 3.0 | 0.3
CCCCOc1ccccc1C1NC(=O)NC(C)=C1C(=O)OCc1ccco1 (stereo not given) | -3 | 2.7 | -5.1 | -2 | 57µM* | -6 | -6.9 | 0.5
CCOc1ccc(S(=O)(=O)N2CCN(Cc3ccccc3)CC2)cc1 | 6 | 3.0 | 1.5 | x | x | 4 | -4.1 | -0.3

Quoted from the listing.
For Calb FLC, COc1cc(OC)c(NC(C)C(=O)N2CCCC2)cc1Cl (stereo not given) shows 13
For T cruzi inh, CCOc1cc(/C=C/C(=O)N(CC)CC(=O)NCc2cccs2)cc(Cl)c1OC shows 7

Other compounds follow:
SMILES | Calb FLC | RanGTP-Imp inh | AF4-AF9 inh | Beta apoptosis | Vif TR-FRET | T cruzi inh | LANA-H2B inh | Bfl-1 A1 inh
CN1C(=O)C(O)(CC(=O)c2ccc3c(c2)OCO3)c2ccccc21 (stereo not given) | -9 | -0.7 | x | -5 | -1% | -5 | 9.0 | 0.0
Cc1cc(C)cc(NC(=O)Nc2ccc3ccccc3n2)c1 | -6 | 1.9 | -0.4 | -8 | 1% | -1 | -0.8 | -0.1
COc1ccccc1NC(=O)c1ccccc1NC(=O)c1cccs1 | -6 | -2.2 | -3.5 | 17 | x | 9 | -1.7 | 0.2
CC(Nc1nc(N2CCCCC2)nc2ccccc12)c1ccccc1 (stereo not given) | 39 | 0.9 | x | 26 | 8% | 64* | -4.2 | x
COCCCNC(=O)c1nc2c(nnn2Cc2cc(C)ccc2C)c(=O)[nH]1 | -5 | 0.2 | 1.5 | 6 | 2% | 16 | -0.3 | 0.0
COC(=O)c1ccccc1NC(=O)CN1CCN(C23CC4CC(CC(C4)C2)C3)CC1 | 19 | u | x | 7 | -5%&-7% | 33 | -0.1 | 0.4
O=C(CNCCC1=CCCCC1)Nc1ccc(N2CCCCCC2)cc1 | -38 | -1.6 | x | x | 7% | 37 | 2.6 | 0.6
CCOC(=O)N1CCC2(CC1)NCCc1c2[nH]c2ccccc12 | -8 | -1.0 | 1.9 | -3 | 8% | -2 | -1.6 | 0.3
O=C(Nc1ccc(Cl)c(Cl)c1)OCc1cncs1 | -3 | -2.0 | x | 2 | 5% | 20 | 1.1 | -0.8
